Screening data as filed in PubChem BioAssay.
miR-21 reporter: miR-21 reporter, rising signal. HeLa miR-21 FLuc reporter, luciferase, 48 h. Potency, µM (series often up to 38.3 µM), for the others: at the highest dose reporter change, positive = more light. 340,000 tested, under 10 active; active = well fitted rising curve with a large enough effect; inconclusive = small, poorly fitted or top-dose-only effect; inactive = no such curve, though single readings can be large or run the other way;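 note: % of control where 0% means no effect; miR-21 action dims this reporter so a rising signal means less miR-21 action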
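HeLa miR-21-FLuc reporter line, endogenous miR-21; 2000 cells/well in DMEM/10% FBS; compound titration up to ~40uM final, 48 h, 37 degree Celsius; luciferase detection reagent, 15 min lysis, CCD luminescence.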
Rango-impB inh: inhibitors of Rango-importin beta complex formation; Q14974; Rango CFP/YFP FRET sensor + importin beta, 45 min; Potency, µM (titrated, usually from 92.2 µM), inactives show at the top dose inhibition of complex formation; 340,000 tested, 0.031% active; active = rising FRET ratio curve, often small or poorly fitted; inconclusive = mostly compound fluorescence or quenching in the first reads; inactive = flat curves in all reads;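 note: potency is the fitted concentration of half-maximal effect; 0% = DMSO wells and 100% = buffer wells lacking importin beta; nearly all actives have a fitted effect of over 15% in size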
Target sequence (Q14974 whole entry, looked up): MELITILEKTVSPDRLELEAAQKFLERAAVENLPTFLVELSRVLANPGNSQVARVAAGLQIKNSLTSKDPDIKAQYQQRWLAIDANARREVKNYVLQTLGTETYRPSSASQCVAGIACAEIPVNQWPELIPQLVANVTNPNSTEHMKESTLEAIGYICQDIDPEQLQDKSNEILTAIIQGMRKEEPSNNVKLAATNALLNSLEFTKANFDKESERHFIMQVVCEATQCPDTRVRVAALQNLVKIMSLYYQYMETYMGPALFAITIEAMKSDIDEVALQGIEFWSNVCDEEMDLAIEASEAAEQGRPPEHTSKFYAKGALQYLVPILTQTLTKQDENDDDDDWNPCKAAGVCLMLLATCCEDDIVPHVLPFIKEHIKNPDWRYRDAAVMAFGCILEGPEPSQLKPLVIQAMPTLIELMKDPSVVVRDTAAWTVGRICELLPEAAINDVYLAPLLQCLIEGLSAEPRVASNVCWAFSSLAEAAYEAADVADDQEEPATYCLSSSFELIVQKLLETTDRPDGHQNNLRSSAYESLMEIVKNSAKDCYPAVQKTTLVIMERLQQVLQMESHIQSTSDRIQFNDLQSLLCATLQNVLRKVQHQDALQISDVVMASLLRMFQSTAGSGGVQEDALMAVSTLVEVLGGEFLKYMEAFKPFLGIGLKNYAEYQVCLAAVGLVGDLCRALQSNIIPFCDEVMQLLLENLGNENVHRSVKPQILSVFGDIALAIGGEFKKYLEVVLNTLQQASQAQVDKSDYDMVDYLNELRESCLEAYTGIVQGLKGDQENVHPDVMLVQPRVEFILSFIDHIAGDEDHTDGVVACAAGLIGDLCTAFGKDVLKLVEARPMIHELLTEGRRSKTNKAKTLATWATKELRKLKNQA
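Inhibition scored from the CFP 486 nm/YFP 530 nm FRET ratio 45 min after adding 0.125 microM importin beta to 50 nM Rango biosensor preincubated 5 min with compound (room temperature, PBS with DTT, Tween-20, BSA). No-importin wells as positive control.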
Rango dissoc inh: inhibition of RanGTP-driven Rango-importin beta dissociation; O95149+P62826; Biochemical FRET Rango-importin beta, RanGTP-induced dissociation; Potency, µM (highest dose often 46.1 µM), for inactives: at the top dose activity change, negative = inhibition; 340,000 tested, 0.071% active; AID 540253; active means falling FRET ratio curve, often poorly fitted, with flat reads before Ran was added; inconclusive means other falling curves, or compound fluorescence or quenching; inactive means flat or rising ratio curve;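 note: potency is the fitted concentration of half-maximal effect; % of control where 0% means no effect; nearly all actives have a fitted effect of over 45% in size; -100% = wells without RanGTP and RCC1; the record marks most hits as doubtful in a second field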
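Quantitative HTS using a FRET biosensor: 0.1 uM Rango, 0.25 uM importin beta, 0.6 uM Ran, 2 mM GTP, 0.2 uM RCC1 final, PBS with DTT, Tween-20 and BSA. Post-read taken 45 min after Ran addition.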
GLA inh pH 4.5: alpha-galactosidase A (human) inhibition, pH 4.5 | P06280 | purified enzyme, 4-MU-alpha-Gal fluorescence, pH 4.5 | activity change, negative = inhibition, % at 105 µM | 230,000 tested, under 10 active | AID 1467; inconclusive = small, poorly fitted or top-dose-only inhibition, or a rising curve; inactive = flat fitted curve, though single readings scatter; no compound was filed as active;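 note: 0% = full activity with enzyme and -100% = basal without enzyme; dose as in the result columns while the protocol names 77 µM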
* = called active by the depositor; u = inconclusive; x = no result given; & = joins results of further samples; [ ] = remark or other dose. These rows are one share of the data; rates above refer to the full screens.

Results follow in this order: miR-21 reporter, Rango-impB inh, Rango dissoc inh, GLA inh pH 4.5
- CC1(C)CC(NC(=O)c2cc(COc3cccc(C(F)(F)F)c3)on2)CCO1 (stereo not given)
  -7%, 0.2%, -6%, x
- O=C(CN1C(=O)C2C3C=CC(C3)C2C1=O)Nc1nc(SCc2ccc(Cl)cc2)n[nH]1 (stereo not given)
  -20%, -0.4%, 4%, 0
- COC1Cc2ccccc2N(C(=O)N2CCN(CCO)CC2)c2ccccc21 (stereo not given)
  -4%, -0.5%, 1%, 4
- CC(=O)N1C(=O)CC(C)N(C(C)=O)c2ccc([N+](=O)[O-])cc21 (stereo not given)
  -4%, -1.2%, 1%, 8
- CCCNS(=O)(=O)c1ccc(CCC(=O)NCc2ccco2)cc1
  1%, -0.8%, 0%, -8
- CC1(C)N=C(N)N=C(N)N1c1cccc(CN)c1
  0%, 0.0%, 13%, 6
- CN(C)c1ccc(/C=C/c2nc3ccccc3c(=O)n2CCO)cc1
  2%, u, u, x
- O=C(Nc1ccccc1C(=O)N1CCOCC1)c1cccc(S(=O)(=O)N2CCCC2)c1
  -3%, -6.0%, 3%, -10
- O=C(c1ccccc1)N(c1ccccc1)c1ccccc1O
  x, -3.9%, -29%, x
- COC(=O)CSc1nc2nc(C)c(Br)cc2[nH]1
  -5%, -0.2%, -6%, 9
- COC(=O)c1sccc1NC(=O)c1ccc(Br)o1
  -5%, 0.5%, 5%, 9
- COc1ccc(-c2noc(Cc3cccs3)n2)cc1
  -51%, -1.3%, 11%, -20
- O=C(NCCc1c[nH]c2ccc(Cl)cc12)c1ccc([N+](=O)[O-])cc1
  -4%, 0.1%, 8%, 4
- COc1ccc(Nc2nc(NCc3ccco3)nc(N/N=C/c3ccccc3)n2)cc1
  7%, 0.1%, 3%, -16
- O=C(COc1ccc(F)cc1F)N1CCCCCCC1
  -10%, -1.8%, -2%, x
- COc1cc(CNCCNC(=O)c2nonc2N)ccc1OCc1ccc(Cl)nc1
  -2%, -2.4%, -8%, -22
- COC(=O)c1cccc(N(C(=O)c2ccco2)C(C(=O)NC2CCCC2)c2ccc(N3CCOCC3)cc2)c1 (stereo not given)
  -3%, -1.6%, 4%, x
- COC(=O)C1=C(N)Oc2cc(C)n(CCCn3ccnc3)c(=O)c2C1c1ccc(Cl)cc1 (stereo not given)
  1%, 1.8%, u, 5
- CC(C)CC(=O)NC(c1ccccc1Cl)c1c(O)ccc2ccccc12 (stereo not given)
  4%, 1.0%, -9%, -6
- O=C(CNC(=O)c1ccc(Br)o1)NC12CC3CC(CC(C3)C1)C2
  -38%, -0.6%, 27%, x

Entries of single compounds, quoted from the list.
O=C(Nc1ccccc1C(=O)N1CCOCC1)c1cccc(S(=O)(=O)N2CCCC2)c1 reads miR-21 reporter: -3%; Rango-impB inh: -6.0%; Rango dissoc inh: 3%; GLA inh pH 4.5: -10
CN(C)c1ccc(/C=C/c2nc3ccccc3c(=O)n2CCO)cc1 reads miR-21 reporter: 2%; Rango-impB inh: u; Rango dissoc inh: u; GLA inh pH 4.5: x

Some of the entries so far, with values ahead of the structure.
miR-21 reporter | Rango-impB inh | Rango dissoc inh | GLA inh pH 4.5 | SMILES
2% | u | u | x | CN(C)c1ccc(/C=C/c2nc3ccccc3c(=O)n2CCO)cc1
-3% | -1.6% | 4% | x | COC(=O)c1cccc(N(C(=O)c2ccco2)C(C(=O)NC2CCCC2)c2ccc(N3CCOCC3)cc2)c1 (stereo not given)

(further entries)
Results follow in this order: miR-21 reporter, Rango-impB inh, Rango dissoc inh, GLA inh pH 4.5
- CCN1CCC(C(=O)NC2CCCC2)(N(Cc2cccs2)C(=O)Cn2nnc3ccccc32)CC1
  -13%, x, x, 6
- O=c1[nH]c(Cc2ccccc2Cl)nc2ccccc12
  0%, 2.1%, 13%, -2
- CN(Cc1ccccc1)C(=O)c1ccc(NC(=O)Cc2ccc([N+](=O)[O-])cc2)cc1
  x, 0.3%, -19%, x
- Cc1ccc(-n2nc3c(=O)n(CCCC(=O)NCC(C)c4ccccc4)nc(C)c3c2C)cc1 (stereo not given)
  -2%, -0.8%, -10%, x
- O=C(CSc1nnc(-c2cccs2)o1)Nc1cccc(S(=O)(=O)N2CCCCC2)c1
  -13%, -0.1%, 4%, 7
- CC1(c2ccccc2)NC(=O)N(N)C1=O (stereo not given)
  -5%, 0.7%, 3%, 13
- COc1cccc(OC)c1C(=O)Nc1ccc2c(c1)OCCO2
  -3%, 4.0%, u, 1
- Cn1c(-c2sc3ccccc3c2Cl)n[nH]c1=S
  -9%, u, -4%, -1
- COc1cccc(CNC(=O)C(CC(C)C)NC(=O)c2ccccc2C)c1 (stereo not given)
  4%, 4.3%, 4%, x
- COc1ccccc1OCC(=O)Nc1ccc2c(c1)C(=O)N(CC1CCCO1)C2=O (stereo not given)
  0%, 2.3%, 5%, 5
- c1ccc(C(c2ccccn2)c2ccccn2)cc1
  -1%, 0.2%, 1%, 1
- O=C(CC1C[C@H](C(=O)N2CCOCC2)[C@@]2(CCC3CCCC3)c3[nH]c4ccccc4c3CCN2C1=O)NCCC1=CCCCC1 (stereo not given in full)
  x, 0.2%, 28%, x
- Cc1ccc(S(=O)(=O)N2CCCC2)cc1C(=O)O
  -1%, u, -15%, 6
- Cn1nnc2cc(C(=O)N3CCC(c4ccccc4)C3)ccc21 (stereo not given)
  -37%, -1.8%, -10%, -21
- COc1ccc(OCC(=O)NC(=S)Nc2ccccc2F)cc1
  -15%, 1.6%, -1%, 1
- Nc1nnnn1/N=C/c1ccccn1
  6%, u, u, -4
- CCC1(C)SC(N)=NN1C(C)=O (stereo not given)
  1%, u, 7%, -2
- COc1ccc(NC(=O)c2ccc(-c3nn(C)c(=O)c4ccccc34)cc2)cc1C(N)=O
  1%, -0.6%, 1%, 7
- CCN1CCN(C(=S)Nc2ccc([N+](=O)[O-])cc2)CC1
  -27%, -2.1%, -6%, -1
- CC1CSc2nc3sc4c(c3c(=O)n21)CCCC4 (stereo not given)
  -45%, 2.8%, -3%, 5

2 of these compounds in another layout:
miR-21 reporter	Rango-impB inh	Rango dissoc inh	GLA inh pH 4.5	smiles
x	0.2%	28%	x	O=C(CC1C[C@H](C(=O)N2CCOCC2)[C@@]2(CCC3CCCC3)c3[nH]c4ccccc4c3CCN2C1=O)NCCC1=CCCCC1 (stereo not given in full)
-13%	-0.1%	4%	7	O=C(CSc1nnc(-c2cccs2)o1)Nc1cccc(S(=O)(=O)N2CCCCC2)c1

(further entries)
Results follow in this order: miR-21 reporter, Rango-impB inh, Rango dissoc inh, GLA inh pH 4.5
- Cc1ccnn1-c1ccc(C(=O)NCC(c2ccco2)N2CCCC2)cc1 (stereo not given)
  x, 4.5%, -16%, x
- CCCCN(C)CCNS(=O)(=O)c1ccc2c(c1)n(C)c(=O)c(=O)n2C
  -4%, 4.9%, 19%, 5
- Cc1ccc(C)c(NC(=O)c2ccc(OCc3c(C)noc3C)cc2)c1
  x, 3.2%, -5%, x
- O=C(COC(=O)c1ccc(NS(=O)(=O)c2ccc3c(c2)OCCO3)cc1)NC1CCS(=O)(=O)C1 (stereo not given)
  -2%, -2.6%, 1%, 1
- Cc1ccc(Oc2ccccc2NC(=O)CN2C(=O)NC3(CCCC3)C2=O)cc1
  -4%, -2.8%, -7%, x
- CC(C)c1ccc(NC(=O)CCc2ccccc2)cc1
  -19%, 6.4%, 2%, x
- CC(C)C(=O)c1cc2c(cc1NC(=O)c1cccs1)OCCO2
  -1%, -5.0%, 0%, -22
- O=C(NCC1CCCO1)c1ccc2c(c1)N(Cc1ccccc1)C(=O)CS2=O (stereo not given)
  -3%, 1.1%, 1%, 7
- Cc1cc(C)n(-c2ccc(C(=O)C(C#N)c3nc4ccccc4n3C)cc2)n1 (stereo not given)
  -17%, 4.2%, 1%, 6
- CCOc1ccc(NC(=S)NCCCc2ccccc2)cc1
  3%, 1.7%, -8%, 3
- O=CNC1c2ccccc2CCc2ccccc21
  x, 2.2%, 22%, x
- COc1ccc(S(=O)(=O)N2CCCC2)c(C)c1C
  -29%, 3.3%, 5%, 7
- COc1nc(NCC(C)C)nc(Oc2ccc(OCc3ccccc3)nn2)n1
  -9%, 1.0%, -4%, -3
- COc1ccc(/C=C/C(=O)N2CCCc3ccccc32)c(OC)c1
  -19%, 5.3%, 16%, x
- CC1=CC(c2ccc(Cl)cc2)n2nc(N3C(=O)CCC3=O)nc2N1 (stereo not given)
  -3%, u, u, 4
- Cc1ccc(N2C(=O)N(CC(=O)Nc3cccc(Cl)c3)C(=O)C2C)cc1 (stereo not given)
  x, -3.4%, 19%, x
- COc1ccc(/C(O)=C/c2nc3ccccc3n(-c3ccccc3)c2=O)cc1
  -6%, u, u, 4
- CCN(c1cccc(C)c1)S(=O)(=O)c1ccc(-n2cccn2)cc1
  7%&11%, -1.6%, -9%, x
- COc1ccc(C)cc1NC(=O)n1ncc2cc(Cl)ccc21
  -2%, -0.3%, 13%, x
- O=C(O)CCc1ccc(-c2ccc(Cl)cc2)n1CC(=O)O
  -1%, 0.3%, -13%, 11
- CSc1nc2ccsc2c(=O)n1-c1ccccn1
  -4%, -4.3%, -1%, -10
- COc1cc(C(=O)Nc2ccc3c(c2)OCCO3)ccc1OC(F)F
  -38%, 4.6%, 12%, -2
- CCn1c(SCC(=O)Nc2nccs2)nnc1-c1cc2cccc(OC)c2o1
  -5%, -1.0%, 1%, 10
- Cn1cc(C(=O)N2CCN(c3ccccn3)CC2)c(=O)c2cc(S(=O)(=O)N3CCOCC3)ccc21
  -2%, 4.1%, 0%, 2
- Cc1ccc(C(=O)NCN2CCN(c3ccccc3)CC2)cc1
  x, 3.0%, 8%, x
- COCCCNC(=O)c1cc2cc(Br)ccc2oc1=O
  0%, -1.1%, -13%, 0
- O=C(NC1CCCCC1)C(c1ccco1)N(C(=O)c1csnn1)c1ccccc1 (stereo not given)
  0%, -3.1%, 2%, x
- CN(C)c1ccc(/C=C2\NC(=S)N(Cc3ccccc3)C2=O)cc1
  3%, u, u, -17
- CC1=CC(C)(C)N(C(=O)c2ccc(F)cc2)c2cc3c(cc21)OCO3
  15%, -3.9%, -10%, -12
- O=C(Nc1nnc(COc2ccc(F)cc2)s1)Nc1ccccc1F
  -4%, -2.0%, -11%, -2
- O=S1(=O)c2cccc3cccc(c23)N1CCBr
  0%, -2.3%, -3%, x
- C=CCn1c(N)c(C(=O)NCCC2=CCCCC2)sc1=S
  -59%, -3.4%, 2%, -9
- CC(C)CN1C(=O)c2ccc(NC(=O)c3cccs3)cc2C1=O
  -12%, -1.9%, -9%, 8
- COCCNC(=O)c1cc(-c2cccc(OC)c2)on1
  -38%, 0.9%, 1%, 3
- CN(C(=O)c1cc2n(n1)C(C(F)(F)F)CC(c1ccco1)N2)c1ccccc1 (stereo not given)
  2%, 4.7%, 1%, -5
- CC1(C)CC(=O)C=C(Nc2ccc(F)cc2F)C1
  -1%, 15%, -11%, -4
- COc1ccc(NS(=O)(=O)c2ccc(C(=O)N(C)Cc3ccc(C)o3)cc2)cc1
  x, -0.8%, 6%, x
- CC1CCN(C(=S)NC(=O)c2cccs2)CC1
  3%, -0.1%, 3%, -7[21.1 µM]
- O=C(COc1ccc(Br)cc1)Nc1nnc(C2CC2)s1
  x, 3.2%, 5%, x
- Cc1ccc(N2CN(Cc3cccnc3)CNC2=S)cc1
  -3%, 0.7%, 7%, -3
- CN(C)CCN(C(=O)c1ccc(N2C(=O)CCC2=O)cc1)c1nc2cc3c(cc2s1)OCO3
  -16%, -0.5%, 8%, 7
- Cc1ccc(OCC(=O)Nc2ccc(C(=O)O)cc2NC(=O)COc2ccc(C)c(C)c2)cc1C
  -3%, 0.4%, -1%, x

Reformatted: entries from further up.
> O=C(COc1ccc(Br)cc1)Nc1nnc(C2CC2)s1
  miR-21 reporter: x
  Rango-impB inh: 3.2%
  Rango dissoc inh: 5%
  GLA inh pH 4.5: x

> Cc1ccc(N2CN(Cc3cccnc3)CNC2=S)cc1
  miR-21 reporter: -3%
  Rango-impB inh: 0.7%
  Rango dissoc inh: 7%
  GLA inh pH 4.5: -3
